Source: PubChem BioAssay (several laboratories)
Proteasome disasm – inhibitors of ATP-driven 26S proteasome dissociation, primary screen, biochemical, bead-based flow cytometry, GFP-tagged proteasome. anti-FLAG beads, GFP-proteasome disassembly. inhibition of disassembly, % (test concentration not listed). 0.2% of 24,000 active. AID 751, 2007;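 active = above 40%; inconclusive = likely self-fluorescent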;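 note: plate controls were ATP control with full disassembly for no effect and ATP-gamma-S intact proteasomes for full effect; higher percent means more bead fluorescence retained so stronger block of disassembly; stock transfer was 100 nL into about 10 µL; wells with too few beads may also be inconclusive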
VCAM-1 up – enhancers of VCAM-1 display on endothelial cells, cell-based, plate reader, pooled HUVEC, TNFa stimulus (AID 455); HUVEC TNFa-induced VCAM-1 immunofluorescence, plate reader; numbers were filed only for top-ranked candidate wells; augmentation, % at 5 µM; 0.2% of 10,000 active;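 active = a compound raising TNF-alpha-driven VCAM-1 surface staining, with its hit status upheld on visual or statistical review; inactive = the rest, including hits rejected on review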;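 note: 0% = TNFa with vehicle and 100% = strongest image-checked hit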
Starred values were filed as active, the others as inactive; i = inactive; u = inconclusive; x = not tested or not shown. Some of the compounds tested (hit frequency here may not be typical).

Proteasome disasm	VCAM-1 up	smiles
1.3	i	CCOc1ccccc1N1C(=O)c2ccc(C(=O)Nc3cccnc3)cc2C1=O
1.4	x	COc1ccc(N(C)C(=O)CCC(=O)Nc2ccc3nc(N4CCOCC4)cc(C)c3c2)c(OC)c1
2.2	x	COC(=O)/C(=C1/Oc2cc3c(cc2S1)OCO3)C(F)(F)F
-0.9	i	Cc1ccc(CSC2=NCCN2C(=O)c2ccco2)cc1
-0.3	x	CCOC(=O)Cn1c(=O)oc2cc(S(=O)(=O)NCc3ccccn3)ccc21
1.4	x	CCOC(=O)N1CCN(C(=O)c2cn(-c3ccc(C)c(C)c3)c(=O)c3ccccc23)CC1
-0.2	i	CC1(C)NC(=O)N(CCOc2cccc(Cl)c2Cl)C1=O
-2.0	x	CCCCOC(=O)Cn1cnc2ccc(Br)cc2c1=O
0.8	x	CCOCCCNc1nc(=S)[nH]c2cc(OC)c(OC)cc12
-1.9	x	Cc1ccc(S(=O)(=O)NC(CC(=O)O)c2ccccc2)c(C)c1 (configuration not stated)
-0.5	x	O=C1CC(c2ccc3c(c2)OCO3)Sc2nc3ccccc3n21 (configuration not stated)
-0.7	i	COc1ccc(C2=NO[C@@H]3C(=O)N(c4ccc5c(c4)OCCO5)C(=O)[C@H]23)cc1OC

Compound profiles, from the list above. Order of values: Proteasome disasm, VCAM-1 up
Listed for COC(=O)/C(=C1/Oc2cc3c(cc2S1)OCO3)C(F)(F)F → 2.2, x
Listed for CCOC(=O)N1CCN(C(=O)c2cn(-c3ccc(C)c(C)c3)c(=O)c3ccccc23)CC1 → 1.4, x

Next results:
Proteasome disasm	VCAM-1 up	smiles
-1.1	i	CCc1nnc(NC(=O)c2ccc(S(=O)(=O)N(CC(C)C)CC(C)C)cc2)o1
-1.1	x	COc1ccc(-c2nc(CSCC(=O)NCc3ccco3)c(C)o2)cc1
1.8	x	CN1C(=O)CC(N2CCN(C(=O)CN3CCCC3)CC2)C1=O (configuration not stated)
-0.8	i	CCCOc1ccc(N2CC(C(=O)Nc3ccc4c(c3)OCO4)CC2=O)cc1 (configuration not stated)
-0.4	x	O=C(O)CC(c1ccc(Cl)cc1)N1C(=O)CCC1=O (configuration not stated)
-0.2	x	Cc1nn2c(=O)cc(CSc3nc4ccccc4[nH]3)nc2s1
0.6	x	CCOC(=O)c1ccc(NC(=O)C2CCCN(S(=O)(=O)c3cnc[nH]3)C2)cc1 (configuration not stated)
-1.4	x	COc1ccccc1N1CCN(C(=O)c2cc3c(=O)n(C)c4ccccc4c3n2C)CC1
-0.4	i	CN(C)/C=N/c1ncnc2c1cnn2-c1ccc(C(F)(F)F)cn1
-2.5	x	CCN1CCN(C(=O)C2CCN(S(=O)(=O)c3cccc4cccnc34)CC2)CC1
-0.5	x	COc1cc(NC(=O)c2cc(-c3cccs3)on2)cc(OC)c1OC
3.0	x	Cc1cccc(N2CCN(C(=O)Cn3sc4nc(C)cc(C)c4c3=O)CC2C)c1 (configuration not stated)
-0.1	i	CN(C)S(=O)(=O)NC(c1ccccc1)c1ccccc1
2.0	i	CCOc1ccc2c(c1)n(CO)c(=S)n2CO
0.2	x	Cc1ccc(S(=O)(=O)c2n[nH]n3c2nc(=O)c2ccccc23)cc1
0.1	i	CC1CCc2cc(F)cc3c(=O)c(C(=O)O)cn1c23 (configuration not stated)
-5.0	i	Cc1nc2cc(NC(=O)N3c4ccccc4CC3C)ccc2o1 (configuration not stated)
11	i	COc1cccc(NC(=O)COC(=O)c2cccnc2)c1
3.5	x	CCOC(=O)C1=C(CS(=O)(=O)c2ccccc2)NC(=O)NC1c1ccccc1OCC (configuration not stated)
0.6	i	Nc1c(C(=O)NCc2ccco2)nnn1Cc1ccccc1
0.0	x	COc1ccc(NC(=O)CSc2nnc(CNC(=O)c3ccco3)n2-c2ccccc2OC)cc1
0.1	x	O=C(CN1CCCC(O)C1)N1c2ccccc2Sc2ccc(C(F)(F)F)cc21 (configuration not stated)
2.2	x	Cc1ccc(-c2nc(C3CCCN(S(=O)(=O)c4ccc(C)cc4)C3)no2)cc1 (configuration not stated)
-0.4	x	COc1cccc(/C=C/c2ccncc2)c1OC
6.4	x	COc1ccc(OC)c(S(=O)(=O)N2CCCCC2C(=O)N2CCN(c3ccccn3)CC2)c1 (configuration not stated)
0.7	x	O=C(c1ccccc1)c1cccn1CC(=O)N1CCN(c2ccccc2)CC1
0.1	i	Cc1ccc(CNC(=O)C2CC(=O)OC23CCCC3)c(C)c1 (configuration not stated)
1.0	x	CC(=O)c1c(C)[nH]c(C(=O)NCCc2cccc(C)c2)c1C
-0.1	x	CCN(CC)S(=O)(=O)c1ccc2c(c1)c(=O)c(C(=O)N1CCN(c3ccccc3)CC1)cn2C
-0.2	i	Cc1nc(NC2=NCN(CCN3CCOCC3)CN2)nc2c(C)cccc12
-0.1	i	CCOC(=O)N1CCN(C(=O)CSc2ncnc3ccccc23)CC1
3.4	x	O=C(c1cccn2c(=O)c3cc(Br)ccc3nc12)N1CCN(c2ccccn2)CC1
3.2	i	C=CCn1c(SCC(=O)c2cc(C)n(C(C)COC)c2C)nc2sc(C)c(C)c2c1=O (configuration not stated)
-1.5	x	CC(O)COc1ccc(/C(=N/O)c2ccccc2)cc1 (configuration not stated)
2.0	x	CSC1=NCCN1C(=O)Cc1ccc(Cl)cc1
-1.6	i	CCCCn1nnc(NC(=O)Cc2ccc(Cl)cc2)n1
1.4	i	CCOC(=O)c1sc2nc(NC(=O)C3CCCCC3)sc2c1C
0.6	x	CCC1CCCCN1C(=O)c1cc2cc(Br)ccc2oc1=O (configuration not stated)
-2.3	x	CCOC(=O)C1CCCN(c2c(Nc3cccc(C)c3)c(=O)c2=O)C1 (configuration not stated)
0.3	x	CC1=C(C(=O)OCC(C)C)C(c2cccc(F)c2)N2C(=O)C(C)SC2=N1 (configuration not stated)
-0.2	i	Cc1nc2ccc(CCO)cc2s1
-0.7	x	Cn1ncc(Cl)c1C(=O)Nc1cccnc1
6.4	x	O=C1C2CCCN2C(c2ccccc2F)N1c1ccc(Cl)cc1 (configuration not stated)
2.6	x	COc1ccc(CN2C(=O)C3C4C=CC(C4)C3C2=O)cc1 (configuration not stated)
-3.9	x	CCS(=O)(=O)NCC(c1cccnc1)N1CCN(c2ccccc2F)CC1 (configuration not stated)
-0.4	i	COc1ccc(CCNC(=O)C2CCCN(c3nn4c(=O)cc(C)nc4s3)C2)cc1OC (configuration not stated)
0.4	x	CCc1c(O)nc(SCC(=O)NCc2ccco2)[nH]c1=O
0.1	i	CCCCN1C[C@H](O)[C@@H](O)[C@H](O)[C@H]1CO
1.0	i	CC(=O)[C@H]1CC[C@H]2[C@@H]3CCC4=CC(=O)CC[C@]4(C)[C@H]3[C@H](O)C[C@]12C
-0.2	i	Cc1ccc(-n2nc(C(=O)N3CCN(C)CC3)c3c4ccccc4n(C)c3c2=O)cc1
7.4	i	COc1cc2c(cc1OC)-c1cc(OCc3cccnc3)nc(=O)n1CC2
1.5	x	O=C(CSc1ccc2nnc(-c3cccc(F)c3)n2n1)NCC1CCCO1 (configuration not stated)
-0.9	x	COc1ccc(C(=O)N2CC(=O)N(CCc3ccccc3)C(=O)C2)cc1OC
-1.0	x	O=C(NC1CCCCCC1)C1c2ccccc2C(=O)N1Cc1ccco1 (configuration not stated)
3.1	x	COC(=O)c1cnn(-c2ccc(C)c(C)c2)c1-n1cccc1
1.8	x	Cc1nc2sccn2c1-c1csc(NCc2ccccc2)n1
2.8	i	Cn1c(=O)c2c(nc(NCCCO)n2Cc2cccc(Br)c2)n(C)c1=O
-0.2	x	O=C(C1CCCCC1)N1CCN(S(=O)(=O)c2ccc(Cl)cc2)CC1
-0.8	i	O=S(=O)(c1ccc(S(=O)(=O)N(Cc2ccco2)Cc2ccccc2Cl)cc1)N1CCCC1
0.8	i	COc1ccc(CC(=O)NCc2nnc(SCC(=O)Nc3nccs3)n2-c2ccccc2)cc1

Further compounds:
Proteasome disasm	VCAM-1 up	smiles
7.4	i	COc1ccccc1N1CC(O)=C(c2nc3ccccc3c(=O)[nH]2)C1=N
u	x	CC1=CC(C)(C)Nc2ccccc21
-1.8	i	Cc1cccc(NC(=O)Cn2c(=O)n(C)c3ccccc32)c1
0.6	x	CCN1CCCC1CNC(=O)C1c2cc(OC)c(OC)cc2C(=O)N(C)C1c1cccnc1 (configuration not stated)
7.3	x	Cc1c(C(=O)OCC2CCCO2)[nH]c2c1C(=O)CC(c1ccco1)C2 (configuration not stated)
-0.8	i	O=C(Nc1ccc2c(c1)OCO2)c1cccc(Cl)c1
-0.4	i	c1coc(CN(Cc2cccs2)Cc2nnnn2C2CCCCC2)c1
18	x	COc1ccc(-c2nc(CN3CCC(C(=O)N4CCc5ccccc54)CC3)c(C)o2)cc1OC
0.3	i	CC(=O)Nc1ccc(OCC(O)CN2CCN(c3cccc(Cl)c3)CC2)cc1 (configuration not stated)
0.7	x	CC(NC(=O)C1CCN(S(=O)(=O)N2CCCCCC2)CC1)c1ccccc1 (configuration not stated)
1.2	i	Nc1nc(SCc2nc3scc(-c4cccs4)c3c(=O)[nH]2)n[nH]1
2.7	i	CCN(CC(=O)NCc1cccs1)C(=O)c1cc(S(=O)(=O)N2CCOCC2)ccc1C
1.1	i	CCOC(=O)C1CN(S(=O)(=O)c2ccc(C)cc2)CCN1S(=O)(=O)c1ccc(C)cc1 (configuration not stated)
-0.9	x	CCOC(=O)C1=C(C)N(c2nonc2NC(C)=O)C(N)=C(C#N)C1c1ccccc1F (configuration not stated)
-1.6	x	Cc1ccc(-c2nn(-c3ccccc3)cc2C2SCC(=O)N2Cc2ccccc2)o1 (configuration not stated)
2.6	x	CCOC(=O)C1CCCN(C(=O)c2cn(CC)c3ccc(S(=O)(=O)N(C)C)cc3c2=O)C1 (configuration not stated)
0.1	x	Clc1ccc(-c2nnc(SCc3nc(-c4ccccc4)no3)o2)cc1
-33	i	CCSc1nnc(NC(=O)c2nn(C(C)C)c(=O)c3ccccc23)s1
0.4	x	Cc1cc(C)c(NC(=O)CSc2nnc(Cc3cccn3C)n2-c2ccc(F)cc2)c(C)c1
-1.5	i	O=C(NCCC1=CCCCC1)c1cc2c(s1)CS(=O)(=O)C2
1.4	i	CCN(CCCNS(=O)(=O)c1ccc2c(c1)oc(=O)n2C)c1cccc(C)c1
3.4	i	COc1ccc(CNc2oc(COc3ccccc3Cl)nc2C#N)cc1
-1.9	x	CCOc1ccccc1C1C(C(N)=O)=C(C)Nc2nc(-c3cccc(C)c3)nn21 (configuration not stated)
-3.4	i	CCCn1c(SCC(=O)N2CCCc3ccccc32)nnc1-c1ccccn1
-1.0	x	CCOc1ccc(C2c3c(oc4ccccc4c3=O)C(=O)N2c2ccccn2)cc1OC (configuration not stated)
0.6	x	CC1=NCCN1S(=O)(=O)c1ccc(Br)c(C)c1
-0.6	i	CCOC(=O)c1cc(-c2ccc(N)cc2)sc1N
-0.7	x	CC(NS(C)(=O)=O)C(c1cccs1)N1CCN(c2ccccc2)CC1 (configuration not stated)
0.0	i	O=C(O)CCn1[nH]c(=O)ccc1=O
-1.4	i	CCc1ccc2[nH]c(=O)c(C(c3nnnn3CC3CCCO3)N3CCCc4ccccc43)cc2c1 (configuration not stated)
26	x	Cc1ccc(CNC(=O)CS(=O)Cc2nc(-c3ccccc3C)oc2C)cc1 (configuration not stated)
-4.9	i	COc1ccc(NC(=O)CSc2ccccn2)cc1OC
-0.5	i	COc1ccccc1CN1C(=O)CCC1(C)C(=O)NC1CCCCCC1 (configuration not stated)
-1.2	i	COc1cccc(C(=O)Nc2ncc3c(n2)CC(C)CC3=O)c1 (configuration not stated)
0.8	x	CN=CC1=C(O)c2ccccc2C1=O

Entries listed so far containing an aryl thioether with sulfur outside any ring (13):
Proteasome disasm	VCAM-1 up	smiles
-0.2	x	Cc1nn2c(=O)cc(CSc3nc4ccccc4[nH]3)nc2s1
0.0	x	COc1ccc(NC(=O)CSc2nnc(CNC(=O)c3ccco3)n2-c2ccccc2OC)cc1
-0.1	i	CCOC(=O)N1CCN(C(=O)CSc2ncnc3ccccc23)CC1
3.2	i	C=CCn1c(SCC(=O)c2cc(C)n(C(C)COC)c2C)nc2sc(C)c(C)c2c1=O (configuration not stated)
0.4	x	CCc1c(O)nc(SCC(=O)NCc2ccco2)[nH]c1=O
1.5	x	O=C(CSc1ccc2nnc(-c3cccc(F)c3)n2n1)NCC1CCCO1 (configuration not stated)
0.8	i	COc1ccc(CC(=O)NCc2nnc(SCC(=O)Nc3nccs3)n2-c2ccccc2)cc1
1.2	i	Nc1nc(SCc2nc3scc(-c4cccs4)c3c(=O)[nH]2)n[nH]1
0.1	x	Clc1ccc(-c2nnc(SCc3nc(-c4ccccc4)no3)o2)cc1
-33	i	CCSc1nnc(NC(=O)c2nn(C(C)C)c(=O)c3ccccc23)s1
0.4	x	Cc1cc(C)c(NC(=O)CSc2nnc(Cc3cccn3C)n2-c2ccc(F)cc2)c(C)c1
-3.4	i	CCCn1c(SCC(=O)N2CCCc3ccccc32)nnc1-c1ccccn1
-4.9	i	COc1ccc(NC(=O)CSc2ccccn2)cc1OC
